# Calb FLC = C. albicans growth inhibition with fluconazole, primary screen, CaCi-2 strain, Alamar Blue fluorescence. 300,000 compounds, 0.57% hits. C. albicans CaCi-2 (fluconazole-resistant clinical isolate) + fluconazole, 48 h. growth inhibition, % (no concentration beside the values);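 active means most replicates above 75%; inconclusive means exactly half above 75%; inactive means most below 75%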;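 further: all wells also contain fluconazole at 8 µg/ml as a sub-toxic cotreatment; 0% = median of DMSO wells and 100% = median of geldanamycin control wells; wells of about 8 µL received 7.5 nL stock; the first replicate is given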
# Beta cell apopt = inhibitors of cytokine-induced beta cell apoptosis, primary screen, luminescence; INS-1E cytokine-induced death, ATP luminescence, 48 h; percent of positive-control rescue, neutral wells zero; protection from apoptosis, % (test concentration not listed); 300,000 compounds, 0.8% hits; AID 435005, 2010;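 active means all replicates at 75% or more, or half of them and the mean; inconclusive means half reach 75% but not the mean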;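 further: 0% = cytokine-treated negative control wells and 100% = positive control rescue; higher means more ATP so stronger rescue from cytokine killing; wells of about 40 µL received 100 nL stock; the first replicate is given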
# ALR H2O2 inh = inhibitors of human ALR sulfhydryl oxidase, primary screen, biochemical, H2O2 detection, HRP-luminol luminescence, single point. FAD-linked sulfhydryl oxidase ALR (Homo sapiens), P55789. purified ALR, DTT oxidation. inhibition, % (concentration not given with the values). 290,000 compounds, 3.8% hits. AID 485317, 2010;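 active means mean and each replicate at 75% or more; inconclusive means only one of the two met; inactive means neither met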;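 further: stock transfer was 7.5 nL into about 7.5 µL; 0% = neutral wells and 100% = wells with inactivated enzyme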
# Target sequence (P55789 whole entry, looked up): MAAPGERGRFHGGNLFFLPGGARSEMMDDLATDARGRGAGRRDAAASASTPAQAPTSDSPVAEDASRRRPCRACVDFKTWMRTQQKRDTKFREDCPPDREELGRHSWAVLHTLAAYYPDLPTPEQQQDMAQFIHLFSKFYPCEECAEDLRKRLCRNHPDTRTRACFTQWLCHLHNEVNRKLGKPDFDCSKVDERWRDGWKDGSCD
# T cruzi repl = inhibitors of intracellular T. cruzi growth, primary screen, luminescence, NIH3T3 host cells. T. cruzi beta-gal in NIH3T3, 90 h. inhibition, % (test concentration not listed). 300,000 compounds, 1.4% hits. AID 1885, 2009;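 active means mean inhibition across valid replicates above about 55%, limit read from the data; inconclusive means mean below that limit but half or more replicates reach it; inactive means mean below it, under half of replicates reach it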;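 further: signal also drops with host cell toxicity which is not excluded here; 0% = plate median of DMSO wells and 100% = zero luminescence signal; higher percent means less beta-gal luminescence so fewer parasites; stock transfer was 50 nL into about 50 µL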
# rRNA inh HTS = reduced GFP signal of wild-type E. coli, primary screen, bacterial rRNA inhibitor project, GFP/RFP fluorescence, OD600, single point | 350,000 compounds, 1.6% hits | E. coli WT GFP vs humanized-ribosome RFP mutants, 24 h; stronger effect = lower value; DMSO median 0, no signal -100 | GFP signal change (wild-type ribosome), % (concentration not given with the values);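 active means significant combined selectivity score with lowered wild-type GFP, culture density cut under 30%, mutant RFP and density less affected; inactive means any of these conditions unmet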; further: one replicate is shown; some compounds called inactive have numbers as strong as hits
# MLL AF4-AF9 inh = inhibitors of AF4 peptide binding to AF9, primary screen, biochemical, AlphaScreen, biotin-AF4 peptide, FLAG-AF9, single point. 350,000 compounds, 0.47% hits. inhibition, % at 10 µM. Protein AF-9 (Homo sapiens), P42568;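 active means every replicate reaching a set inhibition limit, whatever the replicate mean, cut at about 25% in these data; inconclusive means mean inhibition reaches that limit but some replicates miss it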;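 further: 0% = plate neutral control median and 100% = total signal loss; the record names both 10 and 1 µM as test concentration; the first replicate is given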
# Target sequence (P42568 whole entry, looked up): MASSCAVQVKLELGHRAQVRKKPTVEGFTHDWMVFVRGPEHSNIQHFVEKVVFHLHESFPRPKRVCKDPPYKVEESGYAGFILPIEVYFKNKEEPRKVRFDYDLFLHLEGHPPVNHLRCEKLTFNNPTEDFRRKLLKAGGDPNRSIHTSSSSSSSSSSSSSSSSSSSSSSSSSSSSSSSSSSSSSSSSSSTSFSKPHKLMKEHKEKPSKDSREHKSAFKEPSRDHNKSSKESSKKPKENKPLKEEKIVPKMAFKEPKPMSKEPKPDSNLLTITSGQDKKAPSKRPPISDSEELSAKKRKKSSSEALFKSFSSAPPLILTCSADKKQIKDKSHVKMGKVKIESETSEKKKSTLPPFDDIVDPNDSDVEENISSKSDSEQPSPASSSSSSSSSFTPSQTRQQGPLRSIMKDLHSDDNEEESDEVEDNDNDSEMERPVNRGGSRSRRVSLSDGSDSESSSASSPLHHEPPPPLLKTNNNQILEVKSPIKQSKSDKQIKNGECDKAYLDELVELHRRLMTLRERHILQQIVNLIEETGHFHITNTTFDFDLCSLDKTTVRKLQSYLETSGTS
# RanGTP-Imp inh = inhibitors of RanGTP-importin-beta interaction, primary screen, biochemical, FRET, CFP-Ran, YFP-importin-beta, homogeneous; inhibition, % (concentration not given with the values); cell-free CFP-Ran/YFP-importin-beta FRET ratio; AID 2216, 2009; 300,000 compounds, 1.1% hits;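 active means most replicates above 15%; inconclusive means exactly half above 15%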;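 further: 0% = DMSO wells and 100% = Ran loaded with GDP instead of GTP; wells of about 40 µL received 100 nL stock; the first replicate is given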
# FGF22 binding = binders of human FGF22 protein, primary screen, FGF22 synaptogenesis inhibitor project, biophysical, thermal shift, single point | recombinant FGF22 thermal shift, SYPRO orange fluorescence; percent of sucrose octasulfate shift, DMSO zero | calls only at 9.99 µM | 340,000 compounds, 1.5% hits;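 active means melting point raised past a set limit in the mean and every replicate; inconclusive means no clear call; three in four hits are not shown here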
# Target sequence (Q9HCT0 whole entry, looked up): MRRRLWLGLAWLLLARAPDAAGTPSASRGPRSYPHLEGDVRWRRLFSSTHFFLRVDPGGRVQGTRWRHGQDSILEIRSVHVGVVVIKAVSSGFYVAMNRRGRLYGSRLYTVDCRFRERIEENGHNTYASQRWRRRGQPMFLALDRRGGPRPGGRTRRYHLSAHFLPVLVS
# rRNA inh HTS OD600 = also measured in rRNA inh HTS; calls as there; OD600 change, %; measured here: OD600 growth;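 optical density of the mix in the first replicate; 0 = DMSO median and -100 = no signal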
# rRNA inh HTS RFP = further read-out of rRNA inh HTS, marked with its call; RFP signal change, %; measured here: RFP humanized mutant strains;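 first replicate; 0 = DMSO median and -100 = no signal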
# * marks the source's active call; other numbers are inactive results; i = inactive; ? = inconclusive; . = no result given. A portion of the library (hit frequency here may not be typical).
SMILES,Calb FLC,Beta cell apopt,ALR H2O2 inh,T cruzi repl,rRNA inh HTS,rRNA inh HTS OD600,rRNA inh HTS RFP,MLL AF4-AF9 inh,RanGTP-Imp inh,FGF22 binding
NC(=O)CC(NC(=O)Cc1ccc(Br)cc1)c1ccc(NCCOc2ccccc2)c([N+](=O)[O-])c1 (stereo not given),-18,-5,-2,1,4,5,5.2,-12,-5.8,i
COc1ccc(CNC(=O)c2cccnc2Sc2ccc(Cl)cc2)cc1,3,-4,17,-11,6,-1,-8.9,9.3,?,i
O=C(Nc1ccc(CN2CCOCC2)cc1)c1cc2ccccn2n1,-10,-1,85*,-3,-7,-4,-1.2,-1.5,-0.7,i
C/C(=N\NC(=O)c1ccc(-n2cnnn2)cc1)c1ccc(C)cc1,.,-2,8,.,2,2,4.1,1.4,.,i
COCC(=O)N/N=C\c1cccc(OC)c1OC/C=C/c1ccccc1,?,1,-16,11,-7,-14,-3.8,0.9,4.9,i
COc1cc(/C=C(\C#N)C(=O)Nc2ccccc2F)ccc1OCCN1CCOCC1,-2,-3,-1,2,4,5,1.1,-1.9,13,i
COC(=O)CNC(=O)CN1c2cccc3cccc(c23)S1(=O)=O,-15,-11,-41,-13,.,.,.,.,?,.
O=C(C[n+]1cccc(Br)c1)c1ccccc1,2,-6,-13,-6,-1,-5,-4.1,-1.2,3.1,i
Cc1ccsc1C(=O)C1CCCN(Cc2cc(F)ccc2-n2cccn2)C1 (stereo not given),-4,2,-1,-8,-33*,4.3*,-1.9*,-2.6,4.8,i
CCn1ccnc1CN1CCC(n2nccc2NC(=O)c2ccccc2OC)CC1,-3,4,-2,9,19,11,5.8,2.4,1.2,i
CC(/C=C/c1ccc2c(c1)OCO2)=N/NC(=O)C1COc2ccccc2O1 (stereo not given),-10,-2,-9,-21,7,-8,2.6,0.9,-0.8,i
CN1CCCN(C(=O)CC(c2ccccc2)c2ccccc2)CC1,1,0,-21,-13,.,.,.,.,1.8,.
O=C(CN1C(=O)/C(=C\c2cccs2)SC1=S)Nc1cccc(C(=O)O)c1,-4,1,-6,-12,-2,0,-3.2,1.0,0.4,i
COc1ccc(-c2cc(C(F)(F)F)n3nc(C(=O)N(C)Cc4ccccc4)cc3n2)cc1OC,-2,15,-4,25,1,4,3.7,-29,3.2,i
Cc1ccc(-c2noc(CSc3nnc(CCc4ccccc4)n3-c3ccccc3)n2)cc1,-8,-7,-69,31,3,-9,9.6,-6.3,3.0,i
COc1cccc(C(=O)C2CCCN(Cc3cccc(-n4nc(C)cc4C)c3)C2)c1 (stereo not given),-2,0,-8,40,.,.,.,-0.7,-2.1,i
CCN1CCN(S(=O)(=O)c2ccc(OC)c(NC(=O)c3ccccc3)c2)CC1,-4,-7,-2,-2,19,16,0.3,-8.5,0.6,i
CC(C)[C@H](NC(=O)Nc1ccc(S(N)(=O)=O)cc1)C(=O)O,-10,-1,-3,-6,.,.,.,.,-1.1,.
N/C(=N\OC(=O)c1ccc2ccccc2c1)c1cccc([N+](=O)[O-])c1,0,-7,64,-9,.,.,.,.,7.8,.
O=C(NC1CCCCC1)c1cc(-c2ccc(Cl)cc2)on1,18,4,4,-1,.,.,.,-7.9,-0.7,i
O=C(Nn1c(=O)[nH]c2ccccc2c1=O)c1ccco1,-9,1,-6,-16,.,.,.,.,-6.3,.
O=C(NC1CCCCCC1)C1c2ccccc2C(=O)N1C1CC1 (stereo not given),-34,-5,2,-9,-2,-2,-4.0,-11,6.7,i
O=C(O)c1ccc(N2CCCCC2)cc1,-2,-11,-4,-20,2,9,-4.3,.,?,.
Cc1c(C(=O)NCC2COc3ccccc3O2)oc2ccc(S(=O)(=O)N3CC(C)CC(C)C3)cc12 (stereo not given),-3,8,.,63*,.,.,.,.,1.4,.
CCOC(=O)N1CCN(C(=O)C2CCN(c3nnc(-n4cccc4)s3)CC2)CC1,5,-5,-1,-9,-5,-6,3.2,2.7,0.5,i
N#CCC(=O)c1sccc1-n1cccc1,9,-5,-38,-7,20,11,5.1,-1.1,-2.1,i
O=C(CSc1nnc(Nc2ccccc2)s1)Nc1cccc(S(=O)(=O)N2CCCCC2)c1,17,-9,-3,-21,-15,-6,2.2,-4.2,?,i
CCn1c(Cc2ccc(OC)cc2)nnc1SCC(=O)N1CCN(c2ccccc2)CC1,1,3,65,3,.,.,.,.,-2.0,.
C#CCOCCOCCOCCNc1nc(N2CCOCC2)nc(N2CCN(C(=O)[C@H](Cc3cc4ccccc4[nH]3)n3cc([C@@H](N)CC(C)C)nn3)CC2)n1,14,-9,-13,-7,.,.,.,.,3.9,.
CSc1ccc(N=Nc2c(C)[nH]n(C)c2=O)cc1,3,.,2,0,-24*,-8.3*,-3.7*,16,-1.1,i
COc1ccc(C(=O)c2ccccc2O)c(O)c1,.,-4,-2,.,-19,-49,2.4,-15,.,i
CN=C(c1ccccc1)c1c(C)cccc1C,-5,-2,-4,-3,.,.,.,.,7.6,.
COc1ccc(CCNC(=S)NC(=O)c2c(-c3ccccc3Cl)noc2C)cc1OC,26,-2,-9,15,-14,-12,1.8,-1.5,2.1,i
CCNC(=O)CN1C(=O)NC(CCc2ccccc2)C1=O (stereo not given),24,-5,-4,-18,.,.,.,.,3.1,.
CSc1ccc(/C=N/n2c(Cc3ccc(Br)cc3)n[nH]c2=S)cc1,38,-9,-17,5,-2,0,-1.2,-0.3,1.0,i
CCOC(=O)C1=C(C)N(C)C(=O)NC1c1c(C)nn(-c2ccc(C)cc2)c1Cl (stereo not given),-1,2,4,-3,.,.,.,.,-0.5,.
O=C(CSCc1c(F)cccc1Cl)NCc1ccco1,-12,-4,0,9,.,.,.,.,3.0,.
Cn1c(SCC(=O)NC2CC2)nnc1-c1cccc(NC(=O)c2ccccc2F)c1,-6,-1,-11,6,.,.,.,.,-13,.
CCc1ccccc1NC(=O)CSC1=C(C#N)C(c2ccc3c(c2)OCO3)C2=C(CCCC2=O)N1 (stereo not given),?,-6,-6,23,.,.,.,.,-6.3,.
COc1ccc(-n2nc([N+](=O)[O-])c(=NCCC3=CCCCC3)n2O)cc1,3,-3,-18,91*,4,4,-2.1,13,3.6,i
CCOc1ccc(/C=C\c2nc(O)c([N+](=O)[O-])c(=O)[nH]2)cc1OCC,0,-1,?,0,10,2,-1.3,-2.6,5.7,i
CCOC(=O)c1ccc(NC(=O)c2ccc(CN3CCOCC3)cc2)cc1,-3,-4,-15,0,.,.,.,.,-5.1,.
CN1CCN(c2ncc3c(n2)CC(c2ccccc2F)CC3=O)CC1 (stereo not given),2,-1,-18,29,-3,3,0.5,1.2,-1.3,i
Cc1cccc(OP(=O)(Nc2c(C)n(C)n(-c3ccccc3)c2=O)Oc2cccc(C)c2)c1,-9,11,3,0,-5,-7,-0.3,2.7,2.5,i
O=C(CCC(=O)N1CCOc2ccccc21)NCCCc1ccccc1,-19,0,1,-3,8,4,-1.2,-2.0,6.2,i
CC(=O)N1c2ccc(S(=O)(=O)NCC3CCC(C(=O)Nc4cc(C)ccn4)CC3)cc2CC1C (stereo not given),-10,-16,-2,-2,1,3,-2.2,3.8,1.9,i
COc1ccccc1C(=O)N1CCN(c2ccccn2)CC1,1,0,3,4,12,0,1.9,2.4,0.7,i
COCCCn1c(Cc2csc(Nc3ccc(F)cc3)n2)nnc1SCC(N)=O,24,-8,35,-12,.,.,.,.,?,.
O=C(C[n+]1ccccc1)Nc1ccccc1[N+](=O)[O-],-2,-16,-17,-15,4,6,-1.1,-6.4,2.0,i
Cc1ccc(NC(=O)CN2C(=O)c3ccccc3C2=O)c(C)c1,1,-5,-1,0,16,12,3.2,3.0,-1.7,i
CSc1ccccc1NC(=O)CSc1cccc[n+]1[O-],.,-5,-3,.,5,-4,-1.4,-3.9,.,i
O=C(c1ccccc1F)N1CCN=C1c1ccccc1,3,-1,-3,-6,8,4,-1.0,2.2,-0.1,i
Cn1c(=N)n(CC(O)c2ccccc2)c2ccccc21 (stereo not given),3,-5,-1,-10,.,.,.,.,3.9,.
Cc1cc(=O)c2c([nH]1)c(C)cc1[nH]c(C)c(C)c12,.,-6,2,.,-4,0,-4.0,2.4,.,i
COc1cccc(CN(C)C(=O)c2cc(S(=O)(=O)NC3CCCCC3)ccc2C)c1,.,6,-9,.,-1,-4,-1.8,-1.2,.,i
CC1CC(C)CN(C(=O)CN2C(=O)NC(c3ccccc3)(c3ccccc3)C2=O)C1 (stereo not given),.,-7,2,.,0,-1,-2.2,3.7,.,i
COc1cc(O)c(C(CC(=O)N2CCCC2)c2cc(OC)c(OC)c(OC)c2)c(OC)c1 (stereo not given),-5,3,26,-16,-5,9,8.4,-2.7,-11,i
O=S(=O)(CCOc1ccccc1)c1nc2ccccc2[nH]1,-3,-10,9,-18,.,.,.,.,0.1,.
CC1CCN(C(=O)c2[nH]cnc2C(=O)N[C@@H](Cc2ccccc2)C(=O)OC(C)(C)C)CC1,-9,-1,.,8,14,6,11,4.6,-0.2,i
